# CDC25B-CDK2 inh – primary biochemical HTRF screen for blockers of M-phase inducer phosphatase 2 binding to CDK2/cyclin A. P30305+P24941. z-score (no concentration beside the values). HTRF CDC25B-CDK2/CyclinA binding, anti-His/anti-Flag; active compounds read high. hit rate 0.72% among 94,000;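 further: score is relative to mean and SD of negative controls; strong numbers were not always called active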
# HIV TAR-Tat – TAR RNA-Tat peptide displacers, HIV-1, primary screen, biochemical, FRET, FAM/TAMRA-labeled Tat; z-score (test concentration not listed); hit rate 0.6% among 100,000; AID 1259389, 2018; HIV-1 TAR RNA, Tat peptide displacement FRET; active compounds read high;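 further: score is relative to mean and SD of negative controls; some compounds called inactive have numbers as strong as hits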
# Starred values were filed as active, the others as inactive; x = not tested or not shown.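 How the source made its calls: active means z-score from 3 up in half or more of its runs; inactive means the rest.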
SMILES,CDC25B-CDK2 inh,HIV TAR-Tat
CCCC(=O)Nc1nnc(SCc2cc(=O)n3nc(C(C)C)sc3n2)s1,x,0.53
CSc1cccc(NS(=O)(=O)c2ccc3c(c2)NC(=O)CC(C)S3)c1 (configuration not stated),x,0.69
COC(=O)c1[nH]nc2c1C(=O)N(C1CCCCC1)C2=O,0.7,0.09
Cc1cc(=O)c2c(O)c(C)c(O)cc2o1,x,1.3
CCOc1cc(CNCCSc2nnnn2C)cc(Br)c1OCC,-1.3,-0.61
Cc1cc(C)cc(NS(=O)(=O)c2cc(Br)cnc2N)c1,-1.2,1.9
CCCn1c(=O)c2sccc2n2c(CCCC(=O)N3CCN(c4ccccn4)CC3)nnc12,x,0.17
Cc1nn(C)c2ncc(C(N)=O)c(Oc3cccnc3)c12,-1.7,x
CC1CCN(S(=O)(=O)c2ccc3c(c2)OCC(C(=O)N2CCOCC2)O3)CC1 (configuration not stated),x,0.88
CC(=O)Nc1ccc(NC(=O)C2CCN(c3nn4c(=O)cc(C)nc4s3)CC2)cc1,-1.4,x
CCCCCCn1c(=O)[nH]c2nc3cc(NC(=O)CC)ccc3nc2c1=O,-0.62,0.37
CNC(=O)[C@H](Cc1c[nH]c2ccccc12)NC(=O)[C@@H](CC(=O)NO)CC(C)C,x,0.81
CCc1ccc(S(=O)(=O)c2cn(CC)c3ccc(CC)cc3c2=O)cc1,2.7,2.2
COc1ccc(-n2cc3c(=O)n(C)c(=O)n(C)c3c2)cc1,0.52,0.77
c1ccc(C2Oc3ccccc3C3CC(c4cccnc4)=NN32)cc1 (configuration not stated),0.33,0.49
CCCc1[nH]nc2c1C(c1c(F)c(F)c(F)c(F)c1F)C(C#N)=C(N)O2 (configuration not stated),-0.4,x
CCOc1c(Nc2cc(OC)ccc2OC)c(=O)c1=O,x,1.3
O=C(O)c1cc(-c2cccc(F)c2)nc2n[nH]c(-c3ccc(F)cc3)c12,x,2
CC1Cc2ccccc2N1C(=O)Cn1c(=O)oc2cc(S(=O)(=O)N3CCCCC3)ccc21 (configuration not stated),-0.26,-1.2
O=C(NCCOCCO)c1c(O)nc2ccccn2c1=O,-1.6,0.17
Cn1c(NCc2ccccc2F)nc2ccccc21,-1.8,2.6
Cc1ccccc1CSc1nc2c(c(=O)[nH]1)C(c1ccc(OC(C)C)cc1)CC(=O)N2 (configuration not stated),-1.4,0.45
CCN(CC)CCn1cnc2c1c(=O)[nH]c(=O)n2Cc1ccccc1,-2.5,1.5
Cc1cc(Nc2cccc(C)c2C)nc(C)n1,-0.15,0.31
O=C(CSc1cn(CC(=O)N2CCCCC2)c2ccccc12)NC1CCCC1,x,-0.05
SMILES,CDC25B-CDK2 inh,HIV TAR-Tat
Cc1cc(NC(=O)CSc2n[nH]c(=O)n2-c2ccc3c(c2)OCCO3)n(-c2ccccc2)n1,-0.7,x
FC(F)(F)COc1cc(-c2n[nH]c(=S)n2Cc2ccco2)cc(OCC(F)(F)F)n1,1.2,x
CC1=C(c2ccc(C)c(C)c2)S(=O)(=O)N=C1N1CCCCC1,-1.4,0.33
Cc1sc2nc(SCC(=O)N3CCN(CCO)CC3)[nH]c(=O)c2c1C,-1.3,-0.63
CCCn1cc(S(=O)(=O)c2cc(C)cc(C)c2)c(=O)c2cc(F)c(N3CCOCC3)cc21,x,-0.3
O=C(NC1CCCCC1)NC1CCN(c2ncccn2)CC1,-1.9,1.9
Cc1cc(Br)cc2c1N(Cc1ccccc1)C(=O)C2=O,-1.6,1
O=C(O)CCc1nc(-c2ccc(Cl)cc2)no1,-0.09,x
CSC(=NC(C)(C)C)Nc1ccccc1Cl,-1.4,x
Cc1ccccc1-c1noc(-c2nnn(-c3ccc(F)cc3)c2C)n1,x,0.51
Cn1cccc1-c1cc2n(n1)CCCN2C(=O)Nc1ccccc1Br,x,1.5
O=C(NCC(c1cccs1)S(=O)(=O)c1ccc(F)cc1)c1ccco1 (configuration not stated),x,2.5
Cn1c(SCc2cc(=O)c3cccc(F)c3[nH]2)nc2sc3c(c2c1=O)CCCC3,x,1.1
COc1ccc(N2CCN(C(=O)c3noc4c3CSc3ccccc3-4)CC2)cc1,-1.6,0.79
Oc1ccccc1/C=N/C(/N=C/c1ccccc1O)c1ccccc1O,-1.2,x
Cn1c(/C=C/c2ccc3c(c2)OCO3)nc2ccccc2c1=O,0.59,0.6
CCOc1ccccc1-n1nnc(-c2nc(-c3cccnc3)no2)c1N,x,-1.6
CCN(CC)CCCN(C)C(=O)Cn1ncc2c([nH]c3ccccc32)c1=O,x,0.16
O=C(Nc1cnc2sc3c(n2c1=O)CCCC3)c1ccc(Cl)cc1,-0.31,0.85
CN(C)CCN1CN(CCN(C)C)CN(CCN(C)C)C1,-0.44,x
CCN(CC)CCCNc1nc2ccccc2c2nc(CCn3c(C)nc4ccccc43)nn12,-1.8,-1.1
CN1CN=C2SC3(COC(c4ccc(N(C)C)cc4)OC3)C(=O)N2C1 (configuration not stated),-1.1,x
CCOC(=O)c1cc(S(=O)(=O)N2CCC(C(N)=O)CC2)[nH]n1,x,-0.69
CCn1c[n+](CC(O)COc2ccccc2)c2cc(C)c(C)cc21 (configuration not stated),16*,0.83
CCOC(=O)c1c(-c2ccc(Cl)cc2)nn2c1NCN(C1CCCCC1)C2,-1.3,0.23
SMILES,CDC25B-CDK2 inh,HIV TAR-Tat
Cc1cc2c3c([nH]c2cc1S(=O)(=O)Nc1ccccc1)CC(C)(C)CC3=O,x,0.48
C=CCN1C(C(=O)c2ccccc2)=C(OC(=O)CCCC)c2ccccc2S1(=O)=O,-0.72,1.2
CN1CCc2c(sc3c2C(=O)NC(c2ccc(-c4cccc(Cl)c4)o2)N3)C1 (configuration not stated),0.9,-11
CCN(CC)Cc1cc(=O)n(Cc2ccc(C)cc2)c2c1c(C)nn2C,x,1.5
COc1ccc(C2=NS(=O)(=O)N(C)C(C(=O)Nc3sc4c(c3C#N)CCC4)=C2)cc1,-1.4,0.74
CCCCc1nn2c(=O)cc(COC(=O)C3CCCCC3)nc2s1,x,0.91
COc1ccc(OCCCn2c(CN3CCCCC3)nc3ccccc32)cc1,-2.1,1.7
CCCS(=O)(=O)N1CCC(C(=O)N2CCN(C(=O)OCC)CC2)CC1,x,1
Cc1cc(C)n(CCc2nc3c4ccccc4nc(NCc4ccccc4)n3n2)n1,-1.2,0.7
N#Cc1cc2c(nc1SCC(N)=O)CCCC2,-0.91,-1
O=C1CSC(CC(=O)Nc2ccc(Cl)cc2)=N1,-0.67,x
CCOC(=O)c1c(N)sc2c1C(C(=O)OCC)CCC2 (configuration not stated),-2.1,x
O=C(CN1C(=O)c2ccccc2S1(=O)=O)Nc1ccc(N2CCCC2)cc1,11*,15*
Cc1cc(F)ccc1S(=O)(=O)N(C(=O)c1ccncc1)c1ccc2oc(=O)sc2c1,-1.6,0.19
CC(C(=O)Nc1ccc2c(c1)OCCO2)n1nc(-c2ccc3c(c2)OCCO3)ccc1=O (configuration not stated),-0.07,2
CCOC(=O)NN(C(=O)OCC)C1=CC(c2ccccc2)Oc2ccccc21 (configuration not stated),-2,x
CCS(=O)(=O)c1ncc(Cl)c(C(=O)Nc2c(C(=O)c3ccccc3)oc3ccccc23)n1,1.4,2.4
N/C(CS(=O)(=O)Cc1ccco1)=N\OC(=O)c1ccc(Cl)cc1,-2,x
Cc1onc(-c2ccccc2)c1CNC(=O)CN1C(=O)c2ccccc2C1=O,-0.08,x
CCOC(=O)c1cc(S(=O)(=O)Nc2cc(OCC)ccc2OCC)cn1C,-0.16,1.6
Cc1ccc(Cc2cn3cc(-c4ccccc4)nc3s2)cc1,-0.82,-0.26
CCCN(CCC)c1ncnc2sc(CC)cc12,x,1.4
COc1ccc2[nH]cc(S(=O)(=O)c3ccccc3)c(=O)c2c1,-2.1,0.99
COc1cc(NC(=O)n2ncc3cc(Cl)ccc32)cc(OC)c1,-1,1.5
O=C1c2cnccc2CN1c1cc(F)ccc1F,x,1.5
SMILES,CDC25B-CDK2 inh,HIV TAR-Tat
O=C(COCc1cc(-c2ccco2)on1)NCCCN1CCOCC1,x,0.69
CC(=O)N1c2ccc(S(=O)(=O)N3CCCC3C(=O)N3CCN(c4ccccc4)CC3)cc2CC1C (configuration not stated),x,1.4
O=[N+]([O-])c1ccc(-c2nnc(SCc3c(Cl)cccc3Cl)o2)o1,0.31,x
COc1ccccc1N1CCN(Cc2cc(Cl)c3cccnc3c2O)CC1,-1.3,x
Cn1nc(C(=O)NCC2CCN(CCc3cccs3)CC2)c2c1-c1ccsc1CC2,x,0.62
O=C1CSc2ccc(S(=O)(=O)NCCc3ccccc3)cc2N1,x,-8.9
CN(c1ncnc2c1nc1n2CCCCC1)C1CCCCC1,x,-1.3
Cn1c(=O)c(=O)n(C)c2cc(S(=O)(=O)N3CCCC3C(=O)Nc3ccc(F)cc3)ccc21 (configuration not stated),-1.2,x
CCNc1nc(Oc2ccc(=O)[nH]n2)nc(N2CCOCC2)n1,0.97,x
O=C(CSc1ccc2nnc(-c3ccc(Cl)cc3)n2n1)NCc1ccc(F)cc1,0.93,x
COC(C)(C)C#C/C=C/S(=O)(=O)c1ccc(C)cc1,-0.28,x
COc1ccc(S(=O)(=O)c2nnn(-c3ccc(C(C)C)cc3)c2C)cc1,-1.1,0.7
Cn1ccc2cc(S(=O)(=O)N3CCC(C(=O)NCC4CCCO4)CC3)ccc21 (configuration not stated),x,0.78
C=CCOC(=O)Oc1ccc2c(=O)c(Oc3cc(C)cc(C)c3)coc2c1,-0.44,0.84
CCCN1CCN(CCCNC(=O)c2cnc(N3CCOCC3)nc2)CC1,x,-0.35
Cc1ccc(C)c(NC(=O)C(C)Sc2nc3c(c(=O)[nH]2)CCC3)c1 (configuration not stated),-0.1,1.3
Cc1cc(S(=O)(=O)NCCNc2ccc(C(F)(F)F)cc2[N+](=O)[O-])c(C)cc1Cl,-1.5,x
CC1=C(c2ccc(Cl)cc2)S(=O)(=O)NC1=NCCCN1CCCC1=O,-0.51,1.2
O=c1cc(CSc2ncn[nH]2)[nH]c2ccc(F)cc12,x,-0.61
Cc1cc2c(cc1C)NC(c1ccccc1F)C1=C(CC(C)(C)CC1=O)N2 (configuration not stated),-0.75,x
COc1ccc2nc(-n3nc(C)c4c3NC(=O)CC4c3cccs3)sc2c1 (configuration not stated),x,1.8
CCOc1ccc(S(=O)(=O)[C@H]2CS(=O)(=O)C[C@@H]2NCCc2ccc(Cl)cc2)cc1,-1,-0.37
O=C(Nc1ccc2c(c1)OCCO2)C1CCN(c2cnccn2)CC1,-0.65,1.1
C=CCOc1cccc(C2c3c(-c4c(C)cc(C)cc4O)n[nH]c3C(=O)N2Cc2ccco2)c1 (configuration not stated),0.4,0.06
N[C@@H](Cc1cnc[nH]1)C(=O)O,-0.77,x
SMILES,CDC25B-CDK2 inh,HIV TAR-Tat
COc1ccc(-c2noc(NCc3ccc(Cl)cc3)n2)cc1,-1.6,-1.6
Brc1ccc(-c2nnc(SCCC3OCCCO3)o2)cc1,-1.2,x
Cc1cccc(NCN2C(=O)CCC2=O)n1,-1.4,x
O=C(NCC1CCCO1)C(=O)NCC(c1ccco1)S(=O)(=O)c1ccccc1 (configuration not stated),x,-0.07
Cc1nc(N2CCC(C)CC2)nc2oc(-c3ccccc3)nc12,x,-1.2
COc1ccc(Oc2coc3cc(OC(=O)c4ccc(OC)c(OC)c4)ccc3c2=O)cc1,-0.61,-2.1
CSc1cccc(NC(=O)/C=C/c2ccc(C(C)C)cc2)c1,-2,x
Cc1oc2ncnc(N3CC(C)CC(C)C3)c2c1C(=O)O (configuration not stated),0.42,1.8
CC1CCN(c2nc(-c3ccccc3)ns2)CC1,-2.7,x
CCCCN(CC)C(=O)CN(C)S(=O)(=O)c1cccc2nsnc12,-2,x
CCOC(=O)c1cccc(CSc2nc(-c3ccc(Cl)cc3)c(C#N)c(=O)[nH]2)c1,3.1,-3.8
O=C(NC1CCCC1)c1ccc(Cn2c(=O)c3cccn3c3cccnc32)cc1,x,-0.75
O=C(Nc1ccccc1)c1ccc(Oc2ccc(Cl)cc2)c([N+](=O)[O-])c1,-0.59,x
CCCCc1nn2c(=O)cc(CSCC(=O)Nc3ccc(Cl)cc3)nc2s1,x,-1.2
O=C(CSc1nc(-c2ccc3c(c2)OCO3)nc2cc(=O)[nH]n12)N1CCc2ccccc2C1,x,7.3
Cn1cnc(S(=O)(=O)N2CCN(c3ccccc3F)CC2)c1,x,2.5
Cc1cc(-c2ccc(C)c(S(=O)(=O)NC3CCCCC3)c2)on1,x,0.01
CCO/C=C1/SC(=S)N(c2cc(OC)cc(C(F)(F)F)c2)C1=O,-1.9,x

# In the list so far, 14 contain two or more sulfur atoms:
SMILES,CDC25B-CDK2 inh,HIV TAR-Tat
CCCC(=O)Nc1nnc(SCc2cc(=O)n3nc(C(C)C)sc3n2)s1,x,0.53
CSc1cccc(NS(=O)(=O)c2ccc3c(c2)NC(=O)CC(C)S3)c1 (configuration not stated),x,0.69
Cc1sc2nc(SCC(=O)N3CCN(CCO)CC3)[nH]c(=O)c2c1C,-1.3,-0.63
O=C(NCC(c1cccs1)S(=O)(=O)c1ccc(F)cc1)c1ccco1 (configuration not stated),x,2.5
Cn1c(SCc2cc(=O)c3cccc(F)c3[nH]2)nc2sc3c(c2c1=O)CCCC3,x,1.1
COc1ccc(C2=NS(=O)(=O)N(C)C(C(=O)Nc3sc4c(c3C#N)CCC4)=C2)cc1,-1.4,0.74
Cc1cc(F)ccc1S(=O)(=O)N(C(=O)c1ccncc1)c1ccc2oc(=O)sc2c1,-1.6,0.19
Cn1nc(C(=O)NCC2CCN(CCc3cccs3)CC2)c2c1-c1ccsc1CC2,x,0.62
O=C1CSc2ccc(S(=O)(=O)NCCc3ccccc3)cc2N1,x,-8.9
COc1ccc2nc(-n3nc(C)c4c3NC(=O)CC4c3cccs3)sc2c1 (configuration not stated),x,1.8
CCOc1ccc(S(=O)(=O)[C@H]2CS(=O)(=O)C[C@@H]2NCCc2ccc(Cl)cc2)cc1,-1,-0.37
CCCCN(CC)C(=O)CN(C)S(=O)(=O)c1cccc2nsnc12,-2,x
CCCCc1nn2c(=O)cc(CSCC(=O)Nc3ccc(Cl)cc3)nc2s1,x,-1.2
CCO/C=C1/SC(=S)N(c2cc(OC)cc(C(F)(F)F)c2)C1=O,-1.9,x

# Assay outcomes (PubChem)
